H5N1 antiviral – MDCK cell protection from H5N1 avian flu. cytopathic effect, luminescence, 72 h; hits give high values; no value below 0 was filed and about half of the inactive calls have no number; reference of the scale not given here. inhibition, % at 50 µM. 0.07% of 96,000 active; in the data active = inhibition above about 25%
The depositor's hits bear a star; i = inactive. Only part of the results is shown (hit frequency here may not be typical).

A first look:
SMILES	H5N1 antiviral
Cc1cc(/C=C2\SC(=S)N(Cc3ccco3)C2=O)c(C)n1-c1cccnc1	i
Cc1cc2nc(-c3cccc(NC(=O)c4ccc(Br)o4)c3C)oc2cc1C	i
CN(C)/C=N/c1c(C#N)cnn1-c1ccccc1	2.0
COc1cc2c(cc1O)C(SC)=NC(C)(C)C2	i
CCCCCn1c(=O)c(F)cn(Cc2ccc(OC)c([N+](=O)[O-])c2)c1=O	2.6
c1ccc(CSCCc2ccncc2)cc1	0.7

Results, from the start:
SMILES	H5N1 antiviral
Cc1cc(/C=C2\SC(=S)N(Cc3ccco3)C2=O)c(C)n1-c1cccnc1	i
Cc1cc2nc(-c3cccc(NC(=O)c4ccc(Br)o4)c3C)oc2cc1C	i
CN(C)/C=N/c1c(C#N)cnn1-c1ccccc1	2.0
COc1cc2c(cc1O)C(SC)=NC(C)(C)C2	i
CCCCCn1c(=O)c(F)cn(Cc2ccc(OC)c([N+](=O)[O-])c2)c1=O	2.6
c1ccc(CSCCc2ccncc2)cc1	0.7
COC(=O)c1ccc(NC(=O)Nc2ccc(F)cc2)cc1	0.3
CCOc1ccc(NC(=O)CN2C(=O)C3CCCN3C2=O)cc1 (configuration not stated)	0.8
CC(=O)Nc1ccc(S(=O)(=O)N(C2=NCC(C)S2)c2ccccc2)cc1 (configuration not stated)	0.4
CCn1ncc(/C=N\NC(=O)c2csc3ccccc23)c1C	0.2
O=S(=O)(Nc1ccc(Cc2ccncc2)cc1)c1cccs1	1.1
CCOC(=O)c1sc2nc(CC(=O)OC)nc(NCc3ccc(F)cc3)c2c1C	i
CCn1cc(/C=N/O)c(C)n1	i
Cc1nc(SCC(=O)CC(=O)OC(C)C)c(C#N)c(C)c1C	0.1
Cc1nc(NC(=O)c2ccco2)sc1-c1csc(Nc2ccc(Cl)cc2)n1	i
O=c1oc2ccccc2n1CCn1c2ccccc2c2nc3ccccc3nc21	2.5
O=C1CCCc2c1nc(-c1ccccc1)n2O	i
COc1ccc(-c2nnc3ccc(SCC(N)=O)nn23)cc1OC	1.1
O=C(Nc1ccc(Nc2ccccc2)cc1)c1ccco1	i
CC(C)CCNC(=O)NC(=O)CSc1nnc(-c2ccccc2Br)o1	i
CCOc1cc(/C=N\Nc2ccc([N+](=O)[O-])cc2)ccc1OCC(=O)Nc1ccc(C)c(C)c1	0.4
Cc1nnc(N2CCOCC2)c2ccccc12	i
CCOc1ccc(-c2nnc3sc(COc4ccccc4)nn23)cc1	0.3
Cc1cc(Cl)ccc1OCC(=O)N1CCCCC1	0.6
CC(C)(C)OC(=O)N1CCC(C(=O)O)CC1	0.4
Continued:
SMILES	H5N1 antiviral
CCCCn1c(=O)c(-[n+]2ccccc2)c([O-])c2ccccc21	i
COC(=O)C(NNc1ccccc1)(NC(=O)c1cccc(F)c1)C(F)(F)F (configuration not stated)	i
CCCCOC(=O)C1=C(N)OC2=C(C(=O)CC(C)(C)C2)[C@]12C(=O)N(C)c1ccccc12	i
O=c1c2ccccc2nc2n1CC/C2=C\c1ccccc1[N+](=O)[O-]	2.6
CN(CC(=O)Nn1cnnc1)S(=O)(=O)c1cc(Cl)ccc1Cl	0.3
O=C(NC1CCCCC1)C1CCN(S(=O)(=O)c2cccc3cccnc23)CC1	0.2
Cc1ccc(NC2c3ncccc3C(=O)N2Cc2ccc(F)cc2)cc1 (configuration not stated)	1.1
CCCC(NC(=O)c1ccccc1)c1nc2ccccc2n1Cc1ccc(C(=O)OC)o1 (configuration not stated)	i
CC(=O)N(C)C1=C(O)c2ccccc2C(=O)C1=O	i
O=C1Nc2ccccc2N(O)N1c1cc(-c2ccccc2Cl)no1	i
CC1(NC(=O)COc2ccccc2-c2ccccc2)CCS(=O)(=O)C1 (configuration not stated)	1.2
C=CCOC(=O)C1CC=CCC1C(=O)Oc1ccc(F)cc1F (configuration not stated)	0.7
CCN(CC)S(=O)(=O)c1ccc(NC(=O)c2ccccn2)cc1	1.5
CCOc1ccc(N(CC(=O)NC2CCCC2)C(=O)CCCC(=O)Nc2ccccn2)cc1	i
O=C(Nc1ccc2c(c1)nc1n2CCOC1)C1CCCCC1	0.2
CC1CN(C(=O)c2cnn3c(C(F)F)cc(-c4ccccc4)nc23)CC(C)O1 (configuration not stated)	0.5
Cc1ccc2nc(NC(=O)COC(=O)c3ccco3)sc2c1	0.8
CCC(=O)c1cc2c(cc1NC(=O)c1ccccc1)OCCO2	i
CCOC(=O)N1CCC(=C(C#N)C(=O)Nc2cc(OC)ccc2OC)CC1	0.4
Cc1ccsc1/C=N/n1cnc2sc(C)c(C)c2c1=O	i
O=C(Nc1nccs1)C1CCCN1S(=O)(=O)c1ccc(Cl)cc1 (configuration not stated)	2.3
Cc1nccc2[nH]c(=O)c(C(=O)NCCCN(C)C3CCCCC3)cc12	i
Cc1ccc(C(CCN)c2ccco2)cc1 (configuration not stated)	i
CCn1c(SCC(=O)c2ccc(O)c(O)c2)nnc1-c1ccccc1OC	i
CC(C)CCn1c(SCC#N)nc2c(sc3ccccc32)c1=O	i
(next part)
SMILES	H5N1 antiviral
CCS(=O)(=O)N1CCC(C(=O)N2CCN(c3ccccc3)CC2)CC1	1.2
O=C(C1CCN(S(=O)(=O)c2cccnc2)CC1)N1CCN(c2cccc(Cl)c2)CC1	0.8
O=C(CN(C1CC1)S(=O)(=O)c1ccc(S(=O)(=O)N2CCCCCC2)cc1)Nc1ccccc1	i
CCOC(=O)c1c(C)oc2ccc(NS(=O)(=O)c3ccc4c5c(cccc35)C(=O)N4)cc12	i
CCCOC(=O)NC(CC)COC(=O)Nc1cc(C)ccc1C (configuration not stated)	i
Cc1cc(OCCOc2cccc3cccnc23)c(C)cc1Cl	i
Cc1cccc(NC(=O)C2(c3ccc([N+](=O)[O-])cc3)CCCC2)c1	i
COc1cccc(OC)c1C(=O)N1CCN(c2ccccn2)CC1	i
COc1ccccc1NC(=O)CSc1nc(O)c(Cc2ccccc2)c(=O)[nH]1	i
N#CC1(C#N)COC23CCCCC2C1(C#N)C(=N)O3 (configuration not stated)	14
CCOC(=O)CN1CC23C=CC(O2)C(C(=O)N2CCN(c4ccc(F)cc4)CC2)C3C1=O (configuration not stated)	i
O=C(Cn1cc2c(n1)CCCCC2)N1CCc2ccccc2C1	i
Cc1nc2ccc(NS(=O)(=O)c3c(C)c(C)cc(C)c3C)cc2s1	1.1
CCOc1c2ccc(C(=O)NC3CCCc4ccccc43)cc2nn1C (configuration not stated)	0.2
COC(=O)c1ccc(NC(=O)N2CCC(O)(c3cccnc3)CC2)cc1	i
Cc1ccc(NCc2nnc(SCC(=O)c3ccccc3)n2Cc2ccco2)c(C)c1	i
Cc1cccc2c1N(CCCOc1ccc(C(C)(C)C)cc1)C(=O)C2=O	5.7
Cc1cccc(C)c1NC1=NC(=S)N(c2ccccc2)C12CCOC(C)(C)C2 (configuration not stated)	0.1
COc1cc(/C=C2/C(=O)ON=C2C)ccc1OCc1ccccc1F	i
Cn1c(=O)[nH]c(=O)c2c1nc(OC(=O)c1ccccc1)n2CC(O)COc1ccc(F)cc1 (configuration not stated)	1.9
COCc1cc(Sc2c(Cl)cccc2Cl)nc(-c2ccccc2)n1	0.2
COc1cccc(-c2csc(N3CCN(Cc4ccccc4)CC3)n2)c1	i
Cc1cc(OC(=O)c2c(Cl)cccc2Cl)nc(C)n1	0.6
Cc1cc(NS(=O)(=O)c2ccc(NC(=O)c3cc(-c4cccnc4)nc4ccc(Cl)cc34)cc2)no1	2.2
COC(=O)COc1nc(C)c(Br)c(OC)n1	0.2
Next entries.
SMILES	H5N1 antiviral
O=C(O)CCN(CCC(=O)O)S(=O)(=O)c1ccccc1	i
O=C(OC(C(=O)NCC1CCCO1)c1ccccc1F)c1ccco1 (configuration not stated)	1.0
COc1ccc(CNC(=O)c2csc(Cc3ccccc3)n2)cc1	i
COc1ccccc1/C=C/C(=O)NCC(=O)N/N=C/c1cc(Br)ccc1OC	3.8
CC(=O)c1cccc(NC(=O)CN(c2ccc(C)cc2)S(=O)(=O)c2cccc3nonc23)c1	i
CCOC(=O)c1c(NC(=O)CN(CC)CC)sc2c1CCC2	0.3
COc1cc(C(=O)NCc2ccccn2)ccc1OCc1c(C)noc1C	i
O=c1c2ccccc2nc(SCc2cn3ccsc3n2)n1-c1ccccc1F	1.3
CCCCOCCCNC(=O)c1ccc(OCC)cc1	1.6
CC(C)c1ccc(N(C(=O)c2csnn2)C(C(=O)NC(C)(C)C)c2ccncc2)cc1 (configuration not stated)	i
CCCn1c(C)cc(/C=C(\C#N)C(=O)OCC(=O)NC(=O)NC(C)(C)C)c1C	0.7
COc1ccc(C2C(C(=O)N3CCOCC3)CCC(=O)N2c2cc(OC)c(OC)c(OC)c2)cc1 (configuration not stated)	0.1
COc1ccc2cc(CN(CCc3ccccc3)Cc3nnnn3Cc3ccco3)c(=O)[nH]c2c1	2.1
CC(C)C(NS(=O)(=O)c1cccs1)C(=O)NCCN1CCN(c2ccccc2)CC1 (configuration not stated)	0.3
CC1Cc2ccccc2N1C(=O)CSc1nc2ccccc2n1CC(=O)N1CCOCC1 (configuration not stated)	1.6
COc1cccc(-c2nn(C)c3sc(C(=O)NCc4ccccn4)cc23)c1	i
O=C1C(Cl)=C(N2CCCCC2)C(=O)N1c1ccccc1	0.2
Cc1ccc(NC(=O)/C(=C\c2ccc3c(c2)OCO3)NC(=O)c2ccco2)cc1	i
Cc1ccsc1/C=C1/SC(=O)N(CC(=O)N2CCOCC2)C1=O	i
Cc1cc(C)n(-c2cc(N3CCN(C(=O)c4ccc(C(C)(C)C)cc4)CC3)ccc2[N+](=O)[O-])n1	2.3
COc1ccc(-c2ccc(SCC(=O)N3CCOCC3)nn2)cc1	i
O=C(Nc1ccccc1)c1ccccc1NC(=O)C(F)(F)F	i
CCOC(=O)C1CCN(Cc2nc(-c3ccc(OC)c(OC)c3)no2)CC1	i
CCn1nc(C(=O)OCc2c(C)noc2C)c2ccccc2c1=O	0.7
COC(=O)c1cc(=O)nc2sc(-c3cccs3)nn12	2.1

By substructure, the entries above with a CF3 group (two)
SMILES	H5N1 antiviral
COC(=O)C(NNc1ccccc1)(NC(=O)c1cccc(F)c1)C(F)(F)F (configuration not stated)	i
O=C(Nc1ccccc1)c1ccccc1NC(=O)C(F)(F)F	i

Continuation:
SMILES	H5N1 antiviral
Cc1cc(C)cc(NC(=O)CSc2nnc(Cn3c(=O)sc4ccccc43)n2C)c1	i
CCc1ccc2[nH]c(=O)c(CN(Cc3ccccc3OC)Cc3nnnn3Cc3ccco3)cc2c1	i
CCCCCCn1c(SCC(C)C)nc2c1c(=O)[nH]c(=O)n2C	0.2
O=C(c1cccs1)c1ccc(-c2cccs2)s1	i
O=C(O)COc1c(-c2ccccc2)oc2ccccc2c1=O	0.3
CCc1ccc(C=NC23CN4CN(CN(C4)C2)C3)s1	i
Nn1c(SCC(=O)N2CCCCC2)nnc1-c1ccncc1	0.5
O=C(Cc1ccccc1)NCC1CCCO1 (configuration not stated)	0.1
O=C(NCC1CCCO1)c1cccc(Br)c1 (configuration not stated)	i
Cc1ccc(-c2cnc(-c3ccncc3)o2)cc1	1.0
COc1cccc(Oc2c(C)oc3cc(OC(=O)N(C)C)ccc3c2=O)c1	1.2
COC(=O)c1ccccc1NC(=O)N1CCN(S(=O)(=O)c2ccc(Cl)cc2)CC1	0.5
COc1ccc(CNc2nc3c(c(=O)n(Cc4ccc(F)cc4)c(=O)n3C)n2C)cc1	1.0
COc1ccc(C(=O)Nc2cc(C(=O)c3ccccc3)c(C)oc2=O)cc1	i
CC1CCc2cc(F)ccc2N1C(=O)C1(C)CC1(Cl)Cl (configuration not stated)	0.5
O=c1cc(CN2CCN(c3ccccc3F)CC2)c2cc3c(cc2o1)CCCC3	i
CSc1nc(Oc2ccc3ccccc3c2)c2ccccc2n1	0.9
O=C(Nc1cccc(-c2cnc3ccccc3n2)c1)c1cccc(NC(=O)c2ccco2)c1	i
CN(C)C(=O)NCc1ccc(S(N)(=O)=O)cc1	0.1
C=CCn1c(=O)n2ncnc2c2c3c(sc21)CCCC3	3.0
Cc1nn(C(C)(C)C)c(OC(=O)c2ccco2)c1Sc1ccccc1	i
COc1cc(NC(=O)c2cccs2)ccc1NC(=O)c1ccco1	0.4
COc1ccc(NC(=O)c2cc(-c3ccccc3OC)on2)cc1	i
CCSc1nnc(NC(=O)c2ccc3ccccc3n2)s1	i
Cn1cnc2c1c(=O)n(Cc1ccc(F)cc1Cl)c(=O)n2C	0.2

Single entries from the results shown.
Cn1cnc2c1c(=O)n(Cc1ccc(F)cc1Cl)c(=O)n2C | H5N1 antiviral = 0.2
COc1ccc(CNc2nc3c(c(=O)n(Cc4ccc(F)cc4)c(=O)n3C)n2C)cc1 | H5N1 antiviral = 1.0
CSc1nc(Oc2ccc3ccccc3c2)c2ccccc2n1 | H5N1 antiviral = 0.9
O=C(O)COc1c(-c2ccccc2)oc2ccccc2c1=O | H5N1 antiviral = 0.3
COC(=O)c1ccccc1NC(=O)N1CCN(S(=O)(=O)c2ccc(Cl)cc2)CC1 | H5N1 antiviral = 0.5

Additional records.
SMILES	H5N1 antiviral
CCS(=O)(=O)N1Cc2ccccc2CC1C(=O)Nc1ccc(NC(C)=O)cc1 (configuration not stated)	0.5
CCc1ccc(NC(=O)CSc2nnc(-c3cnccn3)n2Cc2ccco2)cc1	0.5
CCOC(=O)C1CCCN(CCC(=O)Nc2ccccc2)C1 (configuration not stated)	0.1
O=C(c1scc2c1CCCC2)N1CCCCC1	1.3
COCCNC(=O)C(C#N)c1nc2ccccc2nc1N1CCCCCC1 (configuration not stated)	i
CSc1ccccc1NC(=O)c1ccncc1	i
c1cn(CCCNc2ncnc3nc[nH]c23)cn1	0.8
COC(=O)CC1=C(C(=O)OC)C(c2ccc3c(c2Cl)OCO3)C(C#N)=C(N)O1 (configuration not stated)	i
NNC(=O)c1cc2c(s1)CCCCCC2	2.3
CC(C)C(OC(=O)c1cccs1)C(=O)NCc1cccs1 (configuration not stated)	i
CC(C)Cc1ccc(S(=O)(=O)N2CCCC2)cc1	1.2
COc1ccc(S(=O)(=O)N2CC3CCCN3c3cc(C(F)(F)F)ccc32)cc1 (configuration not stated)	i

5 compounds picked at random from those above:
SMILES	H5N1 antiviral
Cc1ccsc1/C=N/n1cnc2sc(C)c(C)c2c1=O	i
CC1CN(C(=O)c2cnn3c(C(F)F)cc(-c4ccccc4)nc23)CC(C)O1 (configuration not stated)	0.5
c1cn(CCCNc2ncnc3nc[nH]c23)cn1	0.8
O=c1c2ccccc2nc(SCc2cn3ccsc3n2)n1-c1ccccc1F	1.3
O=C(OC(C(=O)NCC1CCCO1)c1ccccc1F)c1ccco1 (configuration not stated)	1.0

Screening results (PubChem BioAssay)
